Ecoli growth: blocks Escherichia coli growth; OD600 absorbance (concentration not given with the values); OD600, 23 h; hits give low values; hit rate 0.21% among 330,000; AID 1053175;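 active = OD600 absorbance below the run mean of sample wells minus 3.6 SD, in any replicate, cut at about 0.56 in these data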;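 note: stock transfer was 300 nL into about 60 µL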
HNF4A DNA FP: change in binding of human HNF4 alpha to DNA. hit rate 0.3% among 360,000. activity change, % at 10 µM. AID 1224865. P41235. HNF4a-FITC DNA binding, fluorescence polarization, 1 h; in the data active = activity change above about 30%, passing the limit was not always enough;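 note: controls were the assay level and a saturating level of protein; the project sought stronger binding though the title names inhibitors; some compounds called inactive have numbers as strong as hits; positive values seem to mean higher polarization but the record does not say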
Target sequence (P41235 whole entry, looked up): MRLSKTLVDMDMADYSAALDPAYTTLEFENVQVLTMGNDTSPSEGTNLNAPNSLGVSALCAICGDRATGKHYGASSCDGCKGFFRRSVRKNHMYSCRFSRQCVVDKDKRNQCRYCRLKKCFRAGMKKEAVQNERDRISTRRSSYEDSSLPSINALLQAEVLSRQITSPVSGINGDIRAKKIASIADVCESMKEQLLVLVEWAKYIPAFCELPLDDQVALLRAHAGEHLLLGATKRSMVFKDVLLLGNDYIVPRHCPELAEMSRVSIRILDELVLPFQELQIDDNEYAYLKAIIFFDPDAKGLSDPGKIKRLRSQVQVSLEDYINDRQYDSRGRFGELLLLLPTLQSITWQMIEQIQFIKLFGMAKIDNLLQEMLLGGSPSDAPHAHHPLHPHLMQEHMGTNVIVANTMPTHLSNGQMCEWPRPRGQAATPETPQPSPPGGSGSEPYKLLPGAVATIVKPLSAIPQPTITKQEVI
FGF22 binding: binders of recombinant human FGF22 by thermal shift; Q9HCT0; SYPRO orange fluorescence; percent of sucrose octasulfate shift, DMSO zero; hit rate 1.5% among 340,000; calls only at 9.99 µM;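 active = melting point raised past a set limit in the mean and every replicate; inconclusive = no clear call; three in four hits are not shown here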
AF4-AF9 inh: inhibitors of human MLL-AF4/AF9 interaction. P42568. AlphaScreen, biotin-AF4 peptide binding to FLAG-AF9. inhibition, % at 10 µM. hit rate 0.47% among 350,000. AID 651704;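 active = every replicate reaching a set inhibition limit, whatever the replicate mean, cut at about 25% in these data; inconclusive = mean inhibition reaches that limit but some replicates miss it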;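 note: 0% = plate neutral control median and 100% = total signal loss; the record names both 10 and 1 µM as test concentration; the first replicate is given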
Target sequence (P42568 whole entry, looked up): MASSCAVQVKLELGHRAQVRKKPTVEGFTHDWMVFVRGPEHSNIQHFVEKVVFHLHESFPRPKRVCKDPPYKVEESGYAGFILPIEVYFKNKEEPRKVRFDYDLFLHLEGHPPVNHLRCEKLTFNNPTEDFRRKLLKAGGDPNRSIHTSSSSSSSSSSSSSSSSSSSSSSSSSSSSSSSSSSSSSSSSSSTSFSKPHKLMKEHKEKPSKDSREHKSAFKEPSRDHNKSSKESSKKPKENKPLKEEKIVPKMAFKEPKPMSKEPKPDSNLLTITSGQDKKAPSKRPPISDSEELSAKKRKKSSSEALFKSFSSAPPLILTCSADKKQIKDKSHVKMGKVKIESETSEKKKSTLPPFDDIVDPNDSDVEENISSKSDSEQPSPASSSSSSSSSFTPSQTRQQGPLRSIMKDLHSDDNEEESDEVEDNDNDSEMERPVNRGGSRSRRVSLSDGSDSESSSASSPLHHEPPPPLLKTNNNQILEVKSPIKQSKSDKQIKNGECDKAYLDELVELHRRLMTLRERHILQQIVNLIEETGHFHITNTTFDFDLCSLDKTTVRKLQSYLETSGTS
UCH37 inh: blocks the human deubiquitinase UCH37 | Q9Y5K5 | purified proteasome/UCH37, Ub-AMC cleavage fluorescence | inhibition, % (concentration not given with the values) | hit rate 0.33% among 330,000 | AID 588478;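 active = mean of two replicates above 20%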;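 note: 0% = compound-free wells with enzyme and 100% = wells lacking proteasome; stock transfer was 100 nL into about 20 µL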
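Assay system: Proteasome-bound UCH37. Buffer or medium: pH 7.4 Tris-HCl (50 mM) with ovalbumin, ATP-MgCl2, DTT. Incubation: 30 min preincubation with enzyme, 25 min cleavage at room temperature. Measured by: fluorescence, ex 355 nm, em 460 nm. Read-out basis: percent inhibition. Control set: wells without proteasome as full block, compound-free enzyme plus substrate as uninhibited.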
Vif A3G: HIV-1 Vif–A3G interaction blockers – biochemical, TR-FRET, GST-Vif 1-94, biotin-A3G peptide, dose response retest, primary screen (AID 1117319); inhibition, %, or IC50 in µM where a hit was titrated; TR-FRET GST-Vif / biotin-A3G peptide binding; higher % means a stronger effect; test concentration not given here; strong numbers were not always called active; hit rate 0.57% among 260,000;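 active = above the screen mean plus three standard deviations and confirmed in dose response; inconclusive = results disagree or hit not tested in dose response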;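 note: Vif residues 1-94 fused to GST binding biotinylated APOBEC3G peptide 110-148; 0% = full assay without inhibitor and 100% = GST in place of GST-Vif; retest series ran down from 100 µM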
RanGTP-Impb inh: disruptors of Ran-importin-beta complex formation – biochemical, FRET, CFP-Ran, YFP-importin-beta, homogeneous, primary screen | hit rate 1.1% among 300,000 | cell-free CFP-Ran/YFP-importin-beta FRET ratio | AID 2216 | inhibition, % (concentration not given with the values);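 active = most replicates above 15%; inconclusive = exactly half above 15%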;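 note: 0% = DMSO wells and 100% = Ran loaded with GDP instead of GTP; wells of about 40 µL received 100 nL stock; the first replicate is given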
* = called active by the depositor; i = inactive; ? = inconclusive; / = not tested or not shown; & = joins results of further samples. Some of the compounds tested. The share of hits here may be higher or lower than overall.

SMILES	Ecoli growth	HNF4A DNA FP	FGF22 binding	AF4-AF9 inh	UCH37 inh	Vif A3G	RanGTP-Impb inh
O=C(c1ccc(F)cc1)N1CCN(c2cc(=O)[nH]nc2-c2ccccc2)CC1	0.72	-1.0	/	/	0.8	5%	3.5
CC1(C)C2(C#N)C(N)=NC3(OCCO3)C12C#N (stereo not drawn)	0.77	2.8	/	/	2.9	1%	0.1
O=C(NCc1ccccc1F)C12CC3CC(CC(C3)C1)C2	0.69	1.2	i	-8.2	-0.4	/	5.6
COCCn1c(=O)c2c(nc3n2CCCN3CCc2ccc(OC)c(OC)c2)n(C)c1=O	0.67	0.3	i	-1.8	0.3	2%	-1.8
Nc1cccc(-c2cnc3ccccc3n2)c1	0.68	0.7	i	-1.8	6.2	/	1.9
COc1ccc(CCNC(=O)CCSCc2ccccc2F)cc1OC	0.69	0.6	i	-0.4	-1.6	-5%	1.0
O=C(CCc1ccccc1)NC1CCSC1=O (stereo not drawn)	0.73	3.5	/	/	6.8	?	-0.7
CC(=O)c1cccc(NC(=O)CCc2nc3sc4c(c3c(=O)[nH]2)CCCC4)c1	0.72	14	i	0.3	-2.6	0%	?
O=C1c2ccccc2C(=O)N1CN(C(=O)c1ccccc1)c1ccc(O)cc1	0.68	-5.7	i	10	5.9	-6%	-0.1
CC(O)c1nc2ccc(C(=O)O)cc2[nH]1 (stereo not drawn)	0.56	-1.8	i	0.0	-1.5	/	-1.8
Cc1ccc(CNC(=O)c2ccc(CS(=O)Cc3ccccc3Cl)o2)cc1 (stereo not drawn)	0.69	-2.5	i	-2.6	2.9	-9%	-1.7
CC12CCC(=O)CC1CCC1C2CCC2(C)C1CCC2(O)C(=O)CO (stereo not drawn)	0.65	-1.6	i	-0.3	1.9	7%	/
Cc1cccc(C)c1NC(=O)C(NC=O)c1ccccc1Cl (stereo not drawn)	0.7	-1.9	/	/	-0.1	-1%	5.1
COc1ccc(/C(O)=C2/C(=O)C(=O)N(CC3CCCO3)C2c2cccc(O)c2)cc1 (stereo not drawn)	0.67	0.4	/	/	10	-3%	-6.9
C/C(=N\NC=O)c1ccncc1	/	-2.8	i	-9.6	/	-3%	-0.6
CC1(C)CC(=O)C(N=Nc2cc(C(F)(F)F)ccc2Cl)=C(O)C1	0.68	0.3	i	22	7.8	/	-2.2
O=S(=O)(Nc1ccc2c(c1)oc1ccccc12)N1CCCC1	0.71	1.7	/	/	-1.8	-1%	1.9
O=C(Nc1ccc2oc(-c3ccc4ccccc4c3)nc2c1)c1cccs1	0.8	-4.1	/	/	-151	6%	0.5
CCN1CCN(CCNC(=O)CCCCCn2c(=O)[nH]c3cc(C(=O)OC)ccc3c2=O)CC1	0.71	2.4	/	/	-42	3%	-3.4
N=c1nc2n(cc1F)C1OC(CO)C(O)C1O2 (stereo not drawn)	/	-5.8	i	-4.3	/	-7%	/
O=c1c2ccccc2[nH]c(=S)n1CCCN1CCN(c2ccccc2)CC1	0.67	3.4	i	1.8	0.5	-11%	1.6
O=C(NCc1ccccn1)Nc1ccc(Cl)cc1Cl	0.67	-0.9	i	-1.2	1.9	2%	5.5
CCOCC(=O)Nc1cc(S(=O)(=O)N2CCOCC2)ccc1N1CCCCC1	0.71	4.6	/	-1.2	4.7	-1%	-10
CCn1c(SCC(=O)N2CCC(C)CC2)nnc1-c1ccco1	0.59	5.1	i	-3.5	1.0	/	-0.7
O=C(Nc1cc(Cl)cc(Cl)c1)C1C2C=CC3(O2)C1C(=O)N(CCCN1CCOCC1)C3C(=O)NC1CCCCC1 (stereo not drawn)	0.67	-1.4	i	-6.9	5.2	/	-1.1
CC(=O)Oc1ccc(C(=O)NCc2ccc3c(c2)OCO3)cc1	0.66	0.2	i	-2.5	7.5	/	-1.6
Cc1[nH]n(C(N)=S)c(=O)c1N=Nc1ccccc1C(F)(F)F	0.64	-0.3	i	2.8	11	-2%	-1.5
CCCN1CCc2c(sc(NC(=O)CCS(=O)(=O)c3ccccc3)c2C(=O)OC)C1	0.69	16	i	1.5	-0.3	-7%	155*
CC(=O)Nc1nc(C)c(-c2csc(Nc3ccccn3)n2)s1	0.7	21&0.3	i	-15&-2.1	-77	-3%&0%	-2.1&-2.7
CC(C)N(Cc1ccccc1)C(=O)CN1C(=O)NC(Cc2ccccc2)(c2ccccc2)C1=O (stereo not drawn)	0.71	0.4	i	1.9	0.3	10%	2.3
O=C1c2cccnc2C(Nc2ccc(S(=O)(=O)N3CCCCCC3)cc2)N1Cc1ccccc1 (stereo not drawn)	0.64	-0.4	/	/	1.7	-8%&6%	7.9
Cn1nc(C(C)(C)C)c([N+](=O)[O-])c1C(=O)Nc1ccc(Br)cc1	0.68	-4.3	i	2.7	7.3	-13%	-0.1
Cc1ccc([C@@H]2C[C@H]3[C@@H](CN2S(=O)(=O)c2ccc(Cl)cc2)C(=O)C[C@@H](c2ccc(Cl)cc2)N3S(=O)(=O)c2ccccc2C)cc1	/	2.1	i	0.2	/	-4%	/
COc1cccc(C(=O)N2CCCC(CCC(=O)NCc3ccc(F)c(F)c3)C2)c1 (stereo not drawn)	0.71	-0.4	/	0.9	0.4	-1%	-1.0
COc1ccc(OC)c(/C=N/NC(=O)c2csc3ccccc23)c1	/	1.9	/	/	/	-2%	-5.7
O=C(COC(=O)Cc1ccc(F)cc1)NC1CCCC1	0.66	-0.8	i	4.6	0.5	-2%	5.1
COc1ccccc1Cn1c(C)c(C(=O)NCc2cccc(C)c2)sc1=O	/	-2.3	i	-1.4	/	/	/
Cc1ccc(S(=O)(=O)N2CCN(c3ncnc4scc(-c5ccc(F)cc5)c34)CC2)cc1	0.64	4.6	i	0.4	0.8	-16%	1.3
O=[N+]([O-])c1ccc(S(=O)(=O)NCCCc2ccccc2)cc1	0.69	-5.2	i	-6.6	2.6	/	5.7
Cc1cccc(C)c1NC(=O)C(c1ccccc1F)n1c(=O)c(-c2cc3ccccc3[nH]2)nc2ccccc21 (stereo not drawn)	/	-1.4	i	-28	/	/	/
Cc1ccc(N(CCC#N)C(=O)COC(=O)C2CCN(c3ccc(C(F)(F)F)cn3)CC2)cc1	0.72	0.0	i	-0.4	2.7	-2%	2.7
COc1ccc([C@H]2CC(=O)C=C(c3cccc4c3sc3ccccc34)C2)cc1OC	/	-0.8	i	-1.8	5.4	/	/
CC1CCc2c(sc3ncnc(SCC(=O)Nc4ccc(C(=O)O)cc4)c23)C1 (stereo not drawn)	0.69	0.2	i	1.6	6.6	/	-0.8
CCOC(=O)c1sc(NC(=O)c2ccc(S(=O)(=O)N(CC)CC)cc2)nc1C	0.73	-0.7	/	/	-139	-9%	-0.5
Cc1cc(C(=O)Nc2ccc(N3CCOCC3)cc2)c2ccccc2n1	0.73	0.3	/	/	4.0	9%	3.1
Cc1cccc(NC(=O)CSc2nc(=O)n(CCN3CCOCC3)c3c2CCCC3)c1C	0.63	1.4	i	2.5	3.4	1%	-0.9
COc1ccc(C(=O)Nc2ccnn2C2CCN(C(=O)C3CCOC3)CC2)cc1 (stereo not drawn)	0.71	1.8	i	-1.2	1.0	-1%	-0.1
Cc1c(NC(=O)c2cccc(S(=O)(=O)N3CCOCC3)c2)c(=O)n(-c2ccccc2)n1C	0.69	-4.0	i	2.3	5.2	2%&-5%	5.1
CC(=O)c1ccc(N2CCN(S(=O)(=O)c3ccc4c(c3)CC(=O)N4)CC2)cc1	0.79	1.9	i	-3.1	0.7	/	-5.0
Cc1ccc(/C(N)=N/OC(=O)CCC2CCCCC2)cc1	0.71	2.1	/	/	2.1	4%	-4.1
CCOC(=O)OCC(=O)C1(O)CCC2C3CCC4=CC(=O)CCC4(C)C3C(O)CC21C (stereo not drawn)	0.68	1.1	i	0.2	1.1	-2%	/
Cc1ccc(C)c(SCC(=O)NCc2ccco2)c1	0.72	-1.0	/	/	3.9	-1%	-4.6
Cc1cccc(OCC(=O)N/N=C/c2ccc(N(C)C)cc2)c1	/	-1.2	i	0.7	/	19%	?
CCC12CC3CC(C1)CC(C(=O)Nc1nn[nH]n1)(C3)C2	0.62	1.1	/	/	-0.1	27%	-0.3
O=C(N/N=C/c1ccccc1)c1[nH]c2ccc(Br)cc2c1-c1ccccc1	/	4.6	i	-6.4	/	/	3.5
CC(=O)n1cc(N(C(=O)CCl)c2ccc([N+](=O)[O-])cc2)c2ccccc21	0.65	-1.3	i	7.2	4.3	17%	5.0
CCCNC(=O)C1(C)CCN(C(=O)c2ccccc2OC(F)(F)F)C1 (stereo not drawn)	/	-0.3	i	-0.4	/	/	/
CC(=O)c1ccc(N2CCC(C)CC2)c(F)c1	0.7	-4.0	i	-1.4	2.9	4%	-0.4
COc1ccccc1-n1c(SCC(=O)NC(C)(C)C)nnc1-c1ccco1	0.68	4.3	/	/	-3.9	11%	6.5
Cc1cc(NS(=O)(=O)c2cn(C)nc2C)no1	0.7	-2.8	i	-2.3	3.2	-1%	/

Next part, overlapping the part above by 5 compounds.
SMILES	Ecoli growth	HNF4A DNA FP	FGF22 binding	AF4-AF9 inh	UCH37 inh	Vif A3G	RanGTP-Impb inh
CC(=O)n1cc(N(C(=O)CCl)c2ccc([N+](=O)[O-])cc2)c2ccccc21	0.65	-1.3	i	7.2	4.3	17%	5.0
CCCNC(=O)C1(C)CCN(C(=O)c2ccccc2OC(F)(F)F)C1 (stereo not drawn)	/	-0.3	i	-0.4	/	/	/
CC(=O)c1ccc(N2CCC(C)CC2)c(F)c1	0.7	-4.0	i	-1.4	2.9	4%	-0.4
COc1ccccc1-n1c(SCC(=O)NC(C)(C)C)nnc1-c1ccco1	0.68	4.3	/	/	-3.9	11%	6.5
Cc1cc(NS(=O)(=O)c2cn(C)nc2C)no1	0.7	-2.8	i	-2.3	3.2	-1%	/
CCC(=O)Oc1ccc(C(=O)Nc2cccc(NC(=O)c3ccco3)c2)cc1	0.67	-2.2	i	1.1	-1.9	-11%	0.1
C=CCNC(=O)c1c[nH]c2ccc(S(=O)(=O)N(C)c3ccc(OCC)cc3)cc2c1=O	0.69	-1.7	i	-6.7	0.7	2%	-0.6
Clc1ccc(N/N=C/c2cccs2)nn1	/	2.1	i	9.9	/	7%	-2.1
CC1(C)Cc2c(sc(NC(=O)c3ccc(S(=O)(=O)N4CCCC4)cc3)c2C#N)C(C)(C)N1	0.73	-0.3	i	-0.5	7.9	/	-2.1
CC1CCC(C(C)C)C(OC(=O)COC(=O)c2cccn2C)C1 (stereo not drawn)	0.74	-0.1	/	/	3.8	-1%	?
COc1ccc2nc(C)cc(SCC(=O)NNC(=O)COc3ccc(C)cc3)c2c1	0.74	2.1	/	/	0.8	-14%	5.2
CCOC(=O)[C@@H]1[C@H]2COc3cc(OC)ccc3[C@@H]2N2C(=O)N(c3cccc(F)c3)C(=O)[C@@]12C	/	0.5	i	0.8	1.7	/	2.9
CCOC(=O)N1CCN(Cc2cccs2)CC1	0.72	-0.7	/	/	5.6	25%	/
CCOc1ccc(N(CC(=O)NCc2ccccc2C)S(C)(=O)=O)cc1	0.7	2.1	i	1.4	-0.4	-18%	-0.5
Cc1ccc(OCC(=O)O)c(-n2nc3ccccc3n2)c1	0.71	0.2	/	/	0.5	33%	1.4
C#CC[N+](C)(C)CCCCCCCCCC	0.68	-3.1	i	-6.2	2.5	/	0.2
COc1ccc(CCC(=O)N2CCCC(Nc3ccc(OC)cc3)C2)cc1 (stereo not drawn)	0.69	0.0	i	0.5	2.3	2%	?
COc1ccc(C2(C#N)CCC(=O)N2c2ccccc2)cc1 (stereo not drawn)	0.69	-1.2	i	1.4	3.8	15%	4.0
